# NPYLR7 agonist: activates Aedes aegypti NPYLR7 receptor | activation, % at 10 µM | HEK293T NPYLR7/Galpha15, GCaMP6s calcium fluorescence | 0.15% of 270,000 active; in the data active = activation above about 40%;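 note: 0% = vehicle and 100% = reference agonist at the receptor; some compounds past the cut are filed as inactive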
# NPYLR7 agonist max-min: also measured in NPYLR7 agonist; calls as there; activation, %; measured here: Max-Min RFU normalised activation; some inactives read as strong as hits;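 span of the calcium signal over five minutes; 0% = vehicle and 100% = native peptide agonist; compound fluorescence can raise it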
# * hit, by the source's call; & = joins results of further samples. An excerpt (hit frequency here may not be typical).
mol	NPYLR7 agonist	NPYLR7 agonist max-min
CCOc1ccccc1-c1nc(Cn2nnc(C(=O)Nc3ccccc3OC)c2C)c(C)o1	10	-2
COCCN1CC(NC2CCC3(CCNCC3)CC2)CC1=O (stereo not given)	5	3
CCC1CN(Cc2c(O)ccc3oc4c(c23)CCCC4)CCO1 (stereo not given)	-2	-3
Cn1cnc2c1c(=O)n(CC(=O)N1CCN(C(=O)c3cccs3)CC1)c(=O)n2C	6	2
O=C(NCc1ccncc1)c1csc(COc2ccc([N+](=O)[O-])cc2)n1	5	12
O=C(CCC1CCN(C2CCc3ccccc3C2)CC1)N1CCN(c2ccccc2)CC1 (stereo not given)	4	1
Cc1n[nH]c(C)c1S(=O)(=O)Nc1cccc(-n2cnnn2)c1C	5	1
Nc1ccnn1Cc1ccc(SC(F)(F)F)cc1	-5	-10
O=C(NC(=S)NC1CCSC1=O)c1ccc([N+](=O)[O-])cc1 (stereo not given)	1	4
CCSC(=N)N	-9&-6	-9&-5
CCOC(=O)C1=C(C)Nc2ncnn2C1c1cccc(F)c1 (stereo not given)	4	7
CC1=C(C(=O)Nc2cc(C)on2)C(c2ccccc2Cl)NC(=S)N1C (stereo not given)	3	2
Cn1c(O)c(N=NC(=O)c2ccc(C#N)cc2)c2ccccc21	-5	-13
CCOCCn1c(=O)n(C(C)C(=O)N2CCCC2)c2cc(C(=O)O)cnc21 (stereo not given)	-10	-10
CC1(C)OCC(CNC(=O)CCCc2ccc(NC3OC(C4COC(C)(C)O4)[C@@H]4OC(C)(C)O[C@H]34)cc2)O1 (stereo not given in full)	-4	-11
CC(C)(C)c1ccc(OCC(=O)Nc2cc(C(C)(C)C)nn2-c2cccc(F)c2)cc1	33	29
Cc1nc2c(c(N3CCCCC3)n1)CN(C(=O)c1ccc(-c3ccccc3)cc1)CC2	3	13
CC1CCCC(C)C1NC(=O)C(=O)NC1CC1 (stereo not given)	0	8
O=C(CCC(=O)N1CCc2ccccc21)NCc1ccccc1Sc1ccccc1CO	-1	-3
CCNC(=O)Cn1c(CO)cnc1SCC(=O)Nc1ccc(C)cc1	10	12
CC1=NC2=C(C(=O)CCC2)C(c2cccc(Cl)c2Cl)C1C(=O)OC1CCCC1 (stereo not given)	-6	-10
CC(C)N(CC(=O)N(CCc1c[nH]c2ccccc12)Cc1ccc(F)cc1)C(=O)c1cc(Cl)cc(Cl)c1	23	21
CC(=O)Nc1ccc(O)c(C(=O)NC(C)c2ccccc2C)c1 (stereo not given)	0	-1
CCCCN(CC(=O)N1CCc2sccc2C1c1ccc(Cl)cc1)C(=O)c1ccc(C)c([N+](=O)[O-])c1 (stereo not given)	2	13
COc1ccc(NC(=O)c2ccc(-n3nc(C)cc3C)cc2)cn1	9	8
CC(C)(CC(=O)O)CC(=O)N(CCC#N)Cc1ccccc1	-7	-13
COc1cc(CN2C(=O)C(C)Sc3ccc(C(C)=O)cc32)cc(OC)c1 (stereo not given)	3	0
O=C(OCc1ccccc1)C1=NNC2C(=O)N(C3CCCCC3)C(=O)C12 (stereo not given)	17	10
O=C(CCn1nc(-c2cccs2)oc1=O)Nc1cccc(F)c1	-4	-4
COc1ccc(C2NC(=O)NC(C)=C2C(=O)OCC(F)(F)C(F)(F)F)cc1 (stereo not given)	-2	-3
CCCN(Cc1nnc(Cc2ccccc2)o1)C1CCS(=O)(=O)C1 (stereo not given)	12	-16
CCOc1ccc(NC(=O)N2CCCN(c3nc(Cc4ccccc4)nc4c3c(C)nn4-c3ccccc3)CC2)cc1	0	4
COc1ccc(CCC(=O)N(C)CCN2CCOCC2)cc1OC	5	1
CCCCCCNC(=O)c1csc(CSc2nnc(-c3ccncc3)n2-c2cccc(Cl)c2)n1	10	14
CN(Cc1ccccc1)C(=O)C(C1CCCC1)N1CCN(C(=O)C2CC2)CC1 (stereo not given)	-8	3
COc1ccc(CCc2nnc(CCC(=O)NCc3cc(C(C)C)no3)o2)cc1	7	4
COC(=O)[C@@H]1C[C@@H](NC(=O)c2cc3cc(Cl)ccc3oc2=O)CN1C	14	-2
Fc1cc(Br)ccc1N=Cc1ccc2ncccc2c1	19	17
Cc1ccc(-c2cc(C(=O)NC(C)(C)C)on2)cc1	6	4
Cc1ccc(C(NC(=O)C2CCN(CCOc3ccc(Cl)cc3)CC2)c2ccccn2)cc1 (stereo not given)	7	12
Cc1ccc2c(c1)oc(=O)n2C1CCN(C(=O)C(C)Cl)CC1 (stereo not given)	9	3
Cc1nn(-c2ccc(Nc3ccc(NS(=O)(=O)c4ccc(F)cc4)cc3)nn2)c(C)c1C	-3	-8
CCOC(=O)C(C)Sc1ccc2nnc(CCNC(=O)c3ccccc3)n2n1 (stereo not given)	8	4
CCc1n[nH]c(=O)c(C(=O)N2CC(C)(C)C2(C)C)c1CC	5	1
CCc1nc(Cn2ccnc2-c2ccc(OC)c3ccccc23)no1	-5	-7
Cc1cc2ncn(-c3ccc(=O)[nH]c3)c2cc1C	10	0
CC(C)N(Cc1nc(-c2ccc(C(F)(F)F)cc2)no1)Cc1nccn1C	7	8
N#Cc1ccccc1N1CCCN(S(=O)(=O)c2c(F)cccc2F)CC1	11	7
Cc1ccc(S(=O)(=O)N(CC(N)=O)C2CCCC2)s1	7	-1
O=C(NNC(=O)C1(O)CCCCC1)c1ccc(Br)cc1	-2	1
CCOC(=O)c1ccc(N2C(=O)CC(NCc3ccc(S(N)(=O)=O)cc3)C2=O)cc1 (stereo not given)	3	0
Cc1cc(C)n(C(=O)c2cc3ccccc3oc2=O)n1	6	6
N#Cc1ccc(S(=O)(=O)N2CCN(c3nccc(-c4ccc(Oc5ccccc5)cc4)n3)CC2)cc1	-5	0
CC1(C(=O)NS(=O)(=O)c2cccc(F)c2)CCN1C(=O)COc1ccc(Cl)cc1 (stereo not given)	3	1
CC1c2cccn2CCN1S(=O)(=O)c1ccc(S(=O)(=O)N(C)C)cc1 (stereo not given)	4	12
Cc1noc(C)c1N(C)CCCS(C)(=O)=O	-2	-9
CN(CCCN1c2ccccc2CCc2ccccc21)CC(=O)c1ccc(Cl)cc1	-11	-13
CCN1CCCC1CNC(=O)CCc1ccc(-c2ccc(C)cc2C)n1-c1ccc(CC#N)cc1 (stereo not given)	-2	-3
CCCCN(C)c1c(CC)nc2ccc(C(=O)NCCN3CCNC3=O)cn12	-12	-18
C#CCOc1ccc(C2CC(=O)Nc3c2c(C)nn3-c2ccc3nnc(C)n3n2)cc1 (stereo not given)	0	1

# (continued)
mol	NPYLR7 agonist	NPYLR7 agonist max-min
O=C(CC1(c2ccccc2Cl)CC(=O)N(C2CCCC2)C1=O)N1CCCCCC1 (stereo not given)	17	5
CCc1cccc(CC)c1NC(=O)Cn1c(=O)ccc2ccccc21	4	-2
CCS(=O)(=O)Oc1cccc(CN(Cc2ccco2)C(=O)Nc2ccc(OC)cc2)c1	-6	-2
NC(=O)C1Cc2ccccc2CN1C(=O)CCc1ncc(-c2ccccc2F)o1 (stereo not given)	2	3
COCCNCc1nc(NCCOC)c2c(C)c(C)sc2n1	2	7
CC1=C(C(=O)OC(C)C)C(c2coc3ccccc3c2=O)C2=C(CC(C)(C)CC2=O)N1 (stereo not given)	-12	-15
O=C(NC1CCN(Cc2ccccc2)C1)c1cn(CCC2CCCCC2)nn1 (stereo not given)	10	7
COCCNC(=O)c1c(O)nc2c(C)cccn2c1=O	-2	7
CC(C)CCc1noc(CN2CCN(C/C=C/c3ccccc3)CC2)n1	19	10
COc1cccc2c1OC1(C)CC2C(S(=O)(=O)c2ccc(C(C)C)cc2)C(=O)N1 (stereo not given)	0	5
O=[N+]([O-])c1ccc(/C=N\Nc2nc(-c3ccccc3)c3cc(Br)ccc3n2)o1	0	1
COc1ccc(-n2nnnc2CN2CCN(C(=O)c3cc(C)on3)CC2)cc1	0	-2
Cc1cc(F)ccc1-n1cc(O)c(C(=O)NCCc2cscn2)n1	1	2
COc1coc(C(=O)Nc2ccc(C(C)C)cc2)cc1=O	13	5
COc1ccc(Cl)cc1C(=O)N(CC1CCCO1)c1nc2c(F)cccc2s1 (stereo not given)	3	2
O=C1c2ccccc2S(=O)(=O)N1Cc1cc(Cl)c2c(c1)OCO2	5	0
N#CCCN1CCN(C(=S)c2ccc(-c3ccccc3Cl)o2)CC1	5	5
CC(=O)N(C)c1ccccc1NCc1csc(C(C)C)n1	-21	-21
CCOC(=O)C1C(c2cc(OC)c(OC)c(OC)c2)NC(=O)N(C)C1(O)C(F)(F)F (stereo not given)	6	13
O=C(NCc1ccco1)C(C1CCCC1)N1CCN(C(=O)c2cccc([N+](=O)[O-])c2)CC1 (stereo not given)	-3	2
COc1ccccc1CNC(=O)CSc1ccc(NC(C)=O)nn1	11	10
CN(Cc1cnn(C)c1)C(=O)Nc1ccc(C(C)(C)C(N)=O)cc1	-4	-5
O=C1NCCN(Cc2ccc(F)cc2)C1CC(=O)N1CCC(OCc2ccccc2)CC1 (stereo not given)	17	6
Cc1csc(NC(=O)C2(c3ccccc3F)CCCC2)n1	-10	-10
CN1CCCCCC1C(=O)N1CCC(N2CCC(C(=O)NCc3ccccn3)CC2)CC1 (stereo not given)	0	-4
O=C(CN(C(=O)Nc1ccc(C(F)(F)F)cc1)C1CC1)N(CCc1c[nH]c2ccccc12)Cc1ccc(Cl)c(Cl)c1	15	13
CC1CCN(c2ccc(NC(=O)C(c3ccccc3)c3ccccc3)cc2C(=O)NCC2CCCO2)CC1 (stereo not given)	-4	2
O=C(OCC(=O)N1CCN(c2ccc(F)cc2)CC1)c1ccc(O)cc1	5	5
Cc1c(C(=O)N(CC(F)(F)F)C(C)C2CC2)oc2ccc(F)cc12 (stereo not given)	0	-2
COc1ccc2c(c1)OCC(C=C1N=C(c3ccc(OC)c(OC)c3)OC1=O)=C2	4	1
Cc1cc(C)c2oc(-c3ccc(C)c(NC(=O)c4ccccc4[N+](=O)[O-])c3)nc2c1	9	6
CC(=O)NC1=NN(C(C)=O)C2(S1)C(=O)N(CCCOc1ccc(C)cc1)c1ccccc12 (stereo not given)	3	0
O=C(c1cc2n(n1)CCN(Cc1ccccc1F)C2=O)N1CCC2(CC1)OCCO2	18	24
CC(C)(C)NC(=O)C1CSCN1C(=O)c1cccc(CC#N)c1 (stereo not given)	-4	-4
CCN1CCCC1CNS(=O)(=O)N1CC(C)OC(C)C1 (stereo not given)	7	4
CCOc1ccccc1NC(=O)N(CC(=O)N1CCc2sccc2C1c1ccccc1)C(C)C (stereo not given)	-11	-8

# As a short view, some entries already given.
mol	NPYLR7 agonist	NPYLR7 agonist max-min
CN1CCCCCC1C(=O)N1CCC(N2CCC(C(=O)NCc3ccccn3)CC2)CC1 (stereo not given)	0	-4
O=C(CN(C(=O)Nc1ccc(C(F)(F)F)cc1)C1CC1)N(CCc1c[nH]c2ccccc12)Cc1ccc(Cl)c(Cl)c1	15	13
CC1CCN(c2ccc(NC(=O)C(c3ccccc3)c3ccccc3)cc2C(=O)NCC2CCCO2)CC1 (stereo not given)	-4	2
O=C(OCC(=O)N1CCN(c2ccc(F)cc2)CC1)c1ccc(O)cc1	5	5

# More results:
mol	NPYLR7 agonist	NPYLR7 agonist max-min
C=C(C)CSc1nnc(C)c(=O)[nH]1	0	9
CCOC(=O)CN(Cc1cccc(C(N)=O)c1)C1CC1	8	7
Cc1ccc(SCCC(=O)NCC2(C)CC2)cc1C	3	2
CCc1nc2c(OCc3ccc(C(=O)N(C)C)cc3)cccn2c1N(C)C(=O)CC(C)C	1	3
C=CCNC(=O)CC1C(=O)NCCN1CC(c1ccccc1)c1ccccc1 (stereo not given)	0	-2
Cc1ccc(CN(CCc2ccccc2)C(=O)CN(CC(=O)OCc2ccccc2)C2CC2)o1	4	12
CN=c1scc(-c2ccco2)n1N=Cc1sccc1C	0	1
Cc1ccc(-n2ncc3c(=O)n(NC(=O)c4ccccc4[N+](=O)[O-])cnc32)cc1C	14	10
Fc1cccc(-c2nnn3c2nc(NCc2ccccc2Cl)c2ccccc23)c1	-7	-11
COc1c2c(cc3c1C(c1c(O)c4ccccc4oc1=O)N(C)CC3)OCO2 (stereo not given)	3	1
CCOC(=O)N1CCC(NC(=O)c2ccccc2C2CCNC2)CC1 (stereo not given)	-3	-1
FC(F)(F)c1ccnc(Sc2nnc(NC3CCCCC3)s2)n1	21	17
CCOC(=O)C1(Cc2ccccc2C)CCCN(C(=O)Cn2nc(C)nc2C)C1 (stereo not given)	-1	13
Cc1nc(N2CCCCCCC2)ncc1C(C)NCc1cnn(C(C)C)c1 (stereo not given)	12	7
O=C1CCC2(CCCO2)CCN1Cc1ccccc1-n1cccn1 (stereo not given)	-2	-10
CCOc1ccc(N(CC(=O)N2CCN(c3ccccc3OC)CC2)S(C)(=O)=O)cc1	-6	2
O=C1CCCN1CCCNC(=O)N1CCCCC1C1OCCO1 (stereo not given)	0	-1
Cc1c(C(=O)NC2CCCC2)sc2ncnc(NC[C@H]3C[C@@H]4C=C[C@H]3C4)c12	6	2

# Profiles from above.
# CCOC(=O)C1(Cc2ccccc2C)CCCN(C(=O)Cn2nc(C)nc2C)C1 (stereo not given) is listed with NPYLR7 agonist = -1; NPYLR7 agonist max-min = 13
# Cc1c(C(=O)NC2CCCC2)sc2ncnc(NC[C@H]3C[C@@H]4C=C[C@H]3C4)c12 is listed with NPYLR7 agonist = 6; NPYLR7 agonist max-min = 2
# Cc1nc(N2CCCCCCC2)ncc1C(C)NCc1cnn(C(C)C)c1 (stereo not given) is listed with NPYLR7 agonist = 12; NPYLR7 agonist max-min = 7

# Screening data from PubChem.
